Arbovirus anti = blocks arbovirus infection; arbovirus infection cell-based antiviral screen; inhibition, % at 10 µM; hit rate 0.37% among 200,000; AID 1251;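 active means inhibition from about 30%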;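 further: bluetongue infection of BSR cells; cell survival read as ATP light after 72 h; 0% = infected wells without compound and 100% = uninfected wells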
YopH inh = YopH (Yersinia) phosphatase inhibition; fluorescence Ex485/Em525; inhibition, %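 (about 10 µM by stock and volumes)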; hit rate 0.16% among 140,000; AID 898;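 active means inhibition of 50% or more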;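 further: controls were vehicle for no effect and minimum signal wells for full effect; inactives centre near -20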
RecA intein inh = blocks M. tuberculosis RecA intein splicing | hit rate 0.75% among 290,000 | cell-free RecA intein splicing, fluorescence | P9WHJ3 | inhibition, %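 (about 9 µM by stock and volumes)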; in the data active means inhibition above about 30%;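 further: 0% = vehicle wells and 100% = reference inhibitor control wells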
Target sequence (P9WHJ3 whole entry, looked up): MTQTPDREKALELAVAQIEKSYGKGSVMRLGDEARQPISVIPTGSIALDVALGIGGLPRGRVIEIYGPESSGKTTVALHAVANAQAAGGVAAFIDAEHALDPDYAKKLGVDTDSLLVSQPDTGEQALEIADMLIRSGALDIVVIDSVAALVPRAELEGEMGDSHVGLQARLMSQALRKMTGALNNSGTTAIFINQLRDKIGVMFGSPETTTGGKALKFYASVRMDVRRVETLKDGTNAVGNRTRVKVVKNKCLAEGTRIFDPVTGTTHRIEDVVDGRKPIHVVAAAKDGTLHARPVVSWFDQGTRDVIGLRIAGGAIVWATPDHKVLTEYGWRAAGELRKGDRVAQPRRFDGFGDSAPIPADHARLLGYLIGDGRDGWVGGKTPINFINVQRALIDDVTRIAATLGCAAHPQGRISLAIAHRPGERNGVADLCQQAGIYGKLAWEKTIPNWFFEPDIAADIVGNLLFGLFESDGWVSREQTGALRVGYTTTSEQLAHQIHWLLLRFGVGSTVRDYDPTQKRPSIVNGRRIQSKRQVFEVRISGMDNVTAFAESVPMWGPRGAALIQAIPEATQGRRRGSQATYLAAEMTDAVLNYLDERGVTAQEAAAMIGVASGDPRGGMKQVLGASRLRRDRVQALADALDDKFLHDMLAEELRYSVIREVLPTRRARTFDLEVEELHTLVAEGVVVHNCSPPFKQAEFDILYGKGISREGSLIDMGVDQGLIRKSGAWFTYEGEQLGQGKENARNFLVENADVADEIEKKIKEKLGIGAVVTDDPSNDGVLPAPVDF
Mtb growth = M. tuberculosis H37Rv growth inhibitors, H37Rv strain (AID 1626). M. tuberculosis H37Rv growth inhibition; higher % means a stronger effect. one-dose inhibition, % at 10 µM; IC50 in µM for titrated hits. hit rate 0.95% among 220,000;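 active means confirmed in a dose series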;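 further: bacteria incubated seven days before Alamar blue readout; 0% = bacteria only wells and 100% = bacteria with antibiotic wells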
Mtb betalactam = beta-lactam sensitization of Mtb H37Rv | AID 434955 | M. tuberculosis H37Rv growth with meropenem, percent inhibition; hits of this screen are not shown here | inhibition, % at 25 µM | hit rate 0.27% among 330,000;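 active means about 74% or more and at least 40 points above the plate without the antibiotic, then above 30% in a dose series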;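 further: growth measured after seven days incubation then overnight dye step; 0% = bacteria only wells and 100% = bacteria with antibiotic; twin plates without the antibiotic show which effects depend on it; some results filed as inactive read as strong as hits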
Arbovirus anti repeat = also measured in Arbovirus anti; calls as there; inhibition, %; measured here: 10K subset replicate screen; many hits read low in the repeat;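 first of two repeat runs on a subset; 0% = infected and 100% = uninfected wells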
An asterisk follows results filed as active; x = not tested or not shown. These rows are one share of the data; rates above refer to the full screens.

SMILES | Arbovirus anti | YopH inh | RecA intein inh | Mtb growth | Mtb betalactam | others
CC(C)OCCCNC(=O)c1cc2c(=O)n(C)c3ccccc3c2n1C | -4 | 10 | -1.4 | 2% | -7 | Arbovirus anti repeat=-7
CN1CCN(S(=O)(=O)c2ccc(NC(=O)Cc3cccs3)cc2)CC1 | 7 | -5 | -3.0 | 2% | -12
COCCn1c(=O)c2c(nc3n2CCN3c2ccc(C)cc2)n(C)c1=O | 7 | -21 | x | -5% | x
O=S1(=O)C=C(SCc2cccc(Cl)c2)Nc2ccccc21 | 13 | -9 | 2.7 | x | -1
CCn1c(SCc2nc(-c3ccccc3)no2)nnc1-c1cccs1 | 8 | -11 | 4.5 | -20% | 3
O=C(NC1CCCCC1)c1cccc(COCC(F)(F)F)c1 | -5 | -2 | -1.1 | -5% | -5
CCOc1ncccc1C(=O)OCC(=O)c1ccc(F)cc1 | -1 | x | 0.8 | 4% | -2
CCC(c1nnc(SCC(=O)Nc2ccc(C(=O)Nc3ccccc3OC)cc2)o1)N(C)C (configuration not stated) | -3 | -37 | -2.2 | -1% | 33
COc1ccc(C(CC(=O)N2CCN(c3ccccc3)CC2)c2c(OC)cc(OC)c3ccc(=O)oc23)cc1 (configuration not stated) | x | x | 5.8 | 12% | 2
CC1CCN(C(=O)C(NS(=O)(=O)c2cccc3nsnc23)c2ccccc2)CC1 (configuration not stated) | -4 | -58 | 0.8 | -11% | -3
Cc1nnc(SCCC(=O)Nc2ccc(Cl)cc2)o1 | x | x | -3.0 | x | 2
CCOc1cc(CNCc2ccccc2)ccc1OCc1ccc(Cl)cc1 | x | x | 1.2 | x | 91
COc1ccc(/C=N/N=C/c2ccc(OC)cc2)cc1 | x | x | -1.7 | x | -3
CCCC(=O)Nc1ccccc1Sc1ncnc2scc(-c3ccccc3)c12 | -12 | -13 | 2.8 | -1% | 4
CCOC(=O)Cn1cc(Cl)c(=O)c(Cl)c1 | x | x | -1.3 | -13% | -13
Cc1csc(/N=C/N(C)C)c1C#N | x | x | -0.2 | -8% | 3
COc1ccc(C(=O)c2cc3ccc(O)cc3oc2=O)cc1 | -2 | 21 | 5.1 | -3% | 4
COC(=O)c1cccc(Oc2nc3c(c(=O)n(C)c(=O)n3C)n2C(C)C)c1 | 7 | -42 | -3.0 | 7% | 14
O=C1CN(CC(=O)Nc2ccc(SC(F)F)cc2)CCN1 | -2 | -18 | -1.5 | 1% | 1
Cc1cccc(OCC(=O)N/N=C/CC(C)c2ccccc2)c1C (configuration not stated) | -8 | -21 | 5.1 | 10% | 3

A section from the list above, as a working copy:
SMILES | Arbovirus anti | YopH inh | RecA intein inh | Mtb growth | Mtb betalactam | others
CCOc1cc(CNCc2ccccc2)ccc1OCc1ccc(Cl)cc1 | x | x | 1.2 | x | 91
COc1ccc(/C=N/N=C/c2ccc(OC)cc2)cc1 | x | x | -1.7 | x | -3
CCCC(=O)Nc1ccccc1Sc1ncnc2scc(-c3ccccc3)c12 | -12 | -13 | 2.8 | -1% | 4
CCOC(=O)Cn1cc(Cl)c(=O)c(Cl)c1 | x | x | -1.3 | -13% | -13
Cc1csc(/N=C/N(C)C)c1C#N | x | x | -0.2 | -8% | 3

(further entries)
SMILES | Arbovirus anti | YopH inh | RecA intein inh | Mtb growth | Mtb betalactam | others
CCOC(=O)CSc1nc2c(c(=O)[nH]1)C(C)(CC)Cc1ccccc1-2 (configuration not stated) | x | x | 9.1 | x | -1
O=C(c1cn(Cc2ccccc2F)c2ncccc12)C(F)(F)F | x | x | 2.9 | x | -1
COc1ccccc1/C=C1/C(=O)N(c2ccccc2)N=C1C | x | x | 58* | x | -1
CCCCN(CC)CCNC(=O)c1cn(CCOC)c(=O)c2c1c1ccccc1n2C | x | x | -1.9 | x | 8
Cc1cccc(OCCn2c(=S)[nH]c3ccccc32)c1 | -14 | -27 | 0.0 | -1% | 37
CC(C)CCNC(=O)c1ccc2c(c1)ncn2C1CCCC1 | -8 | x | -1.3 | 6% | 20
C=C(C)COc1ccc2c(CC)cc(=O)oc2c1 | -9 | x | 1.2 | 5% | -3
COc1ccc2nc(N3CCN(C(=O)C4COc5ccccc5O4)CC3)sc2c1 (configuration not stated) | x | x | 4.6 | x | 78
COC(=O)c1ccc(NC2=CC(=O)CC(C)(C)C2)cc1 | -8 | -2 | 0.3 | 9% | 10
O=C1CSC2(CCCCC2)N1CCO | -1 | 8 | -3.2 | 0% | -16
COc1cccc(NC(=O)CSc2nnc(-c3ccoc3C)n2-c2ccccc2)c1 | 13 | -11 | 3.1 | 5% | -2
COC(=O)CN(c1ccc(OC)cc1)S(=O)(=O)c1c(C)noc1C | 8 | -23 | -1.7 | -4% | -4
CCOP(=O)(OCC)C(NC(=O)Nc1cccc(Cl)c1)C(N)=O (configuration not stated) | -12 | -21 | 0.5 | 2% | -9
CCC(C)(C)C(=O)Nc1ccc(OC)cc1[N+](=O)[O-] | 9 | -11 | -1.4 | -1% | 8
Cc1ccc(S(=O)(=O)N2CCOCC2)cc1NC(=O)CN(C)C1CCS(=O)(=O)C1 (configuration not stated) | x | x | 0.4 | 11% | -10
Nc1nc(CSC(=S)N2CCN(c3ccccc3)CC2)nc(Nc2ccccc2)n1 | 4 | -22 | 9.6 | 21% | 85
Cc1ccc(C)c(OCc2cc(C(=O)N(C)Cc3nccs3)no2)c1 | x | x | 3.4 | x | 2
CC1CCN(c2ccccc2NC(=S)NC(=O)c2ccc(-c3cccc([N+](=O)[O-])c3)o2)CC1 | 5 | 18 | 2.2 | -3% | 11
COc1cc(/C=C(\C#N)c2nc(-c3cc4ccccc4oc3=O)cs2)ccc1O | -20 | -22 | 1.9 | 3% | 10
Cc1ccc(NC(=O)c2cccc(N3C(=O)CCC3=O)c2)nc1 | -2 | -24 | -2.8 | 2% | -13

Brought forward from above: 3 entries; new compounds follow.
SMILES | Arbovirus anti | YopH inh | RecA intein inh | Mtb growth | Mtb betalactam | others
CC1CCN(c2ccccc2NC(=S)NC(=O)c2ccc(-c3cccc([N+](=O)[O-])c3)o2)CC1 | 5 | 18 | 2.2 | -3% | 11
COc1cc(/C=C(\C#N)c2nc(-c3cc4ccccc4oc3=O)cs2)ccc1O | -20 | -22 | 1.9 | 3% | 10
Cc1ccc(NC(=O)c2cccc(N3C(=O)CCC3=O)c2)nc1 | -2 | -24 | -2.8 | 2% | -13
CC(=O)Nc1cccc(S(N)(=O)=O)c1C | x | x | -0.6 | -5% | -4
CCn1c(COc2cccc3cccnc23)nnc1SCC(=O)O | 0 | -43 | -1.9 | -3% | 3 | Arbovirus anti repeat=4
Cc1cc(C)nc(NS(=O)(=O)c2ccc(NC(=O)C3CC3)cc2)n1 | x | x | -1.5 | x | 7
O=C(O)c1ccc(/C=C(\c2nc3ccccc3[nH]2)c2nc3ccccc3s2)cc1 | x | x | 39* | -22% | 0
COc1ccc(-c2cc(C(=O)N3CCOCC3)no2)cc1OC | 7 | -2 | 2.0 | 2% | 9
CCOC(=O)NC(=O)CSc1nnnn1-c1ccc(C)cc1 | 4 | -33 | 0.8 | -9% | -10
CCC(=O)c1ccccc1OCCN1CCN(Cc2ccccc2)CC1 | 6 | x | 0.0 | 3% | -5
Cc1cccc(NC(=S)N2CCC(c3nc4ccccc4o3)CC2)c1 | 11 | x | -2.6 | 1% | -1
COC(=O)c1sccc1NC(=O)Cn1cnc2c1c(=O)n(C)c(=O)n2C | 13 | 6 | -1.7 | 0% | -1
Cc1nnc(-c2ccc(Oc3ccc(Cl)cc3)c([N+](=O)[O-])c2)o1 | 8 | -4 | -3.3 | 11% | 5
Cc1ccccc1OCC(O)CN1CCC(C)CC1 (configuration not stated) | -1 | x | 0.4 | 6% | -8
CC1(c2ccccc2Cl)NC(=O)N(CC(=O)Nc2ccc(N3CCCCC3)cc2)C1=O (configuration not stated) | x | x | -0.6 | x | -8
Cc1ccc(N(C(=O)c2csnn2)C(C(=O)NC2CCCCC2)c2ccccn2)c(C)c1 (configuration not stated) | x | x | 0.1 | x | 0
C#CCOc1ccc(C2C3=C(CCCC3=O)N(CC(=O)O)C3=C2C(=O)CCC3)cc1Br | x | x | -451 | x | -5
COc1ccc(S(=O)(=O)N2CCCCCC2)cc1C(=O)N(C)Cc1ccco1 | x | x | -4.6 | x | -8
CCCSc1nc2[nH]ncc2c(=O)[nH]1 | 1 | -12 | 1.9 | -2% | -6
O=C(O)/C=C\C(=O)Nc1ccccc1C(=O)NC1CCCCC1 | -2 | x | 0.4 | -3% | -1
CCN(CC)S(=O)(=O)c1ccc(NC2CCCc3ccccc32)nc1 (configuration not stated) | -5 | 35 | -4.5 | -7% | -11
COC(=O)C(Cc1ccccc1)NC(=O)CCCC(=O)NCc1cccc(OC)c1 (configuration not stated) | x | x | 0.5 | x | 1
CN(c1ccccc1)c1ccc([N+](=O)[O-])c2nonc12 | x | x | 63* | x | 100
COCCCn1c(SC(C)C(=O)NC2CC2)nc2ccccc2c1=O (configuration not stated) | x | x | -0.4 | x | -11
O=C(Nc1ccc2c(c1)OCO2)N1CCCC1 | 4 | x | -0.7 | 3% | -5
COC(=O)c1ccc(C(=O)Nc2cc(Cl)ccc2Cl)cc1NC(=O)c1ccc(N(C)C)cc1 | -24 | -23 | 2.3 | 5% | 3
O=C1c2ccccc2C(Nc2ccc(S(=O)(=O)N3CCCCC3)cc2)N1c1ccccn1 (configuration not stated) | 32* | -16 | -1.5 | -4% | 5 | Arbovirus anti repeat=5.4*
COc1ccc(-c2cc(C(=O)Nc3ccccc3SC)no2)cc1OC | -11 | -36 | 9.3 | 2% | x
Cc1ccc(C)c(OC(=O)c2cccc(S(=O)(=O)N3CCN(C)CC3)c2)c1 | x | x | 0.9 | x | -3
Cc1ccc2ncc([N+](=O)[O-])n2c1 | 0 | -40 | 0.0 | 12% | -1
COc1ccc(/C=C2/C(=O)OCc3cc(OC)c(OC)cc32)cc1 | -24 | -47 | 0.8 | 1% | -1
Cc1ccc(F)cc1NC(=O)Nc1cc(C(C)(C)C)nn1C | x | x | 0.9 | -11% | -5
O=Cc1ccc(OCc2ccc3c(c2)OCO3)cc1 | x | x | 2.7 | x | 4
COCCN(Cc1cc2cc(C)c(C)cc2nc1Cl)C(=O)Nc1ccccc1 | 1 | -27 | 2.4 | 1% | 11
O=C(O)CCC1(C(=O)O)OCCc2ccccc21 (configuration not stated) | -2 | -26 | -2.1 | -12% | -2
CC(C)(C)NC(=O)C1CCN(C(=O)c2ccco2)CC1 | x | x | -0.5 | x | -2
CC(=O)c1ccc(N2CCN(C(=O)c3cc(-c4cccnc4)nc4ccc(Br)cc34)CC2)cc1 | 32* | x | -0.5 | 0% | 44
CCN(CC)S(=O)(=O)c1ccc(N/N=C/c2ccc(O)cc2O)nc1 | -33 | -33 | 9.4 | 3% | 13
Cn1c(Cn2c(=O)sc3ccccc32)nnc1SCC(=O)N1CCc2ccccc21 | -3 | 3 | x | 7% | 2 | Arbovirus anti repeat=-2
O=C(O)CSCC(=O)NCc1cccc(C(F)(F)F)c1 | 11 | x | -0.9 | -2% | 1
CCCCCc1ccc(-c2cn(Cc3ccc(C)cc3)nn2)cc1 | x | x | -2.7 | x | 30
Fc1ccc(CN2CCN(C(c3ccccc3)c3ccccc3)CC2)cc1 | x | x | 11 | x | 11
Cc1ccc(-n2c(C)c([N+](=O)[O-])c3ccc(O)c(CN(C)C)c32)cc1 | 12 | -21 | -5.5 | 3% | -5
CCOc1ccc(C(=O)Nc2nnc(S(=O)(=O)N3CCCCC3)s2)cc1 | x | x | -0.9 | x | 4
COc1ccc(-c2oc3ccccc3c(=O)c2OCC(=O)O)cc1 | 4 | x | -3.2 | -2% | 1
Cc1ccc(S(=O)(=O)N(C)C)cc1NC(=O)C(C)N(C)CCOc1ccc(Cl)cc1 (configuration not stated) | x | x | 7.6 | x | -12
CCOC(=O)C1=C(CN2CCCCCC2)NC(=O)NC1c1cccc([N+](=O)[O-])c1 (configuration not stated) | 6 | x | -2.0 | -7% | -9
O=C(Nc1ccccn1)c1ccc(Cl)c(S(=O)(=O)N2CCCC2)c1 | x | x | 0.6 | x | -2
CC1CCCN(C(=S)Nc2ccc3nc4n(c(=O)c3c2)CCCCC4)C1 (configuration not stated) | -1 | -20 | -3.4 | -4% | 4
O=C(Nc1cccc([N+](=O)[O-])c1)Nc1cccc([N+](=O)[O-])c1 | 3 | x | -1.6 | 10% | -6
O=C(CCCCCn1c(=S)[nH]c2cc3c(cc2c1=O)OCO3)N1CCN(Cc2ccccc2)CC1 | 3 | -15 | 1.9 | -7% | -9
CCC(C)[C@H](NC(=O)Nc1ccc(C(C)=O)cc1)C(=O)OC (some centres not stated) | 16 | -19 | -0.8 | -8% | 0
O=C(NCc1ccccc1)c1ccc2c(=O)n3c(nc2c1)CCCCC3 | x | x | 0.7 | x | -4
CCCCCc1ccc(-c2ccc(=O)[nH]n2)cc1 | -18 | -19 | 8.3 | x | -3
O=[N+]([O-])c1c(Nc2ccc(Br)cc2)ccc2nonc12 | x | x | -0.9 | x | 0
